HPGD block – inhibitors of human 15-hydroxyprostaglandin dehydrogenase (HPGD). P15428. purified HPGD, NADH fluorescence kinetic, PGE2 substrate. Potency, µM, without a hit: at the highest dose activity change, negative = inhibition, usual class: inhibitors. actives 4.3% (n = 150,000). AID 894; active = well fitted inhibition curve with a large enough effect (not every such curve was filed as active); inconclusive = small, poorly fitted or top-dose-only effect, or another doubt; inactive = no such curve, though single readings can be large or run the other way;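 note: top concentration of the series not given in the record; plate controls included wells without enzyme; inactives centre near -10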
Target sequence (P15428 whole entry, looked up): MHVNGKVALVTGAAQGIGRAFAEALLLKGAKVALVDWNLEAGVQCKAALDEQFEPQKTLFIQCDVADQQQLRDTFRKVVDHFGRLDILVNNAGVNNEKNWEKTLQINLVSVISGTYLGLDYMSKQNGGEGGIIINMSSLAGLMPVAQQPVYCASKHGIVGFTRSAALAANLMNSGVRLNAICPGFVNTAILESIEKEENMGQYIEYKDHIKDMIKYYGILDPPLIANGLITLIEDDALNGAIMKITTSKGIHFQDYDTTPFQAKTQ
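20 nM HPGD preincubated 15 min at room temperature with compound in 50 mM Tris-HCl pH 8, 0.01% Tween 20. Started with 1 mM NAD+ and 30 uM prostaglandin E2; NADH fluorescence (360/450 nm) read 5 times over 30-s intervals, last minus first.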
Numbers without * were called inactive; ? = inconclusive; & = joins results of further samples; ! = a repeat was not active. % is set by controls: 0 for no effect and ±100 for the full control effect; potency is the fitted concentration of half-maximal effect. Some of the compounds tested. The share of hits here may be higher or lower than overall.

Cc1ccc2nc(NC(=O)c3cc(-c4ccco4)nc4ccccc34)sc2c1
  HPGD block: ?

O=C(NC1CCCCCC1)C1CCN(S(=O)(=O)c2ccccc2)CC1
  HPGD block: -5%

O=C(O)c1cccc(-n2nnnc2SCc2ccccn2)c1
  HPGD block: ?

Cc1oc(-c2cccs2)nc1CSCC(=O)NC1CC1
  HPGD block: ?

Cc1cc(C(=O)Cn2ncc(Cl)c(Cl)c2=O)c(C)n1CC(F)(F)F
  HPGD block: -1%

O=C(CSc1nncn1-c1ccccc1)NC1CCCc2ccccc21 (stereo not given)
  HPGD block: -10%

COc1ccc(Cc2nc(-c3ccc(Br)cc3)no2)cc1
  HPGD block: -14%

CCN(CC)S(=O)(=O)c1cccc(C(=O)NC(Cc2c[nH]c3ccccc23)c2nnc3n2CCCCC3)c1 (stereo not given)
  HPGD block: -4%

O=C(O)CCC(=O)NCc1ccc(F)cc1
  HPGD block: -1%

Cc1ccc2[nH]c(=O)c(CN(CCc3ccccc3)C(=O)N3CCOCC3)cc2c1
  HPGD block: -20%

O=S(=O)(c1ccc2ccccc2c1)N1CCN(C2Cc3ccccc3C2)CC1
  HPGD block: -10%

Cc1c(Cl)c([N+](=O)[O-])nn1Cc1ccc(C(=O)N/N=C\c2ccccn2)o1
  HPGD block: -5%

COc1cccc2sc(N(C)c3ccccc3)nc12
  HPGD block: ?

Cn1nc(-c2ccccc2)c(CSc2ccccc2)c1Cl
  HPGD block: -10%

CC(C)OCC(O)CN1CCNCC1 (stereo not given)
  HPGD block: 4%

CCC(=O)Nc1ccc(Br)c(Cl)c1
  HPGD block: -19%

CCCCN(CC)C(=O)Cc1cn(C)c2ccccc12
  HPGD block: -9%

COc1ccc2nc(/C(C#N)=C\c3ccc(Oc4ccc([N+](=O)[O-])cn4)cc3)[nH]c2c1
  HPGD block: -12%

COc1cc(/C=C(\NC(=O)c2ccccc2)C(=O)NCCO)c([N+](=O)[O-])cc1OC
  HPGD block: -5%

CCOC(=O)CSc1ccc2nnc(-c3ccccc3)n2n1
  HPGD block: ?

N#C/C(=C\c1cccc(NC(=O)c2ccccc2Cl)c1)C(=O)NCCc1ccccc1
  HPGD block: ?

COc1cccc(C(=O)Nc2cccc(C(=O)NCC(C)C)c2)c1
  HPGD block: -7%

CC(/C=C/c1ccc(N(C)C)cc1)=N/N=C1/NC(=O)CC(C(=O)Nc2ccc(Cl)cc2)S1 (stereo not given)
  HPGD block: -23%

COc1cc(C(=O)NC2CCCc3ccccc32)ccc1OCC(=O)Nc1ccc(F)cc1 (stereo not given)
  HPGD block: -2%

COC(C(=O)Nc1ccc(F)cc1)c1ccccc1 (stereo not given)
  HPGD block: -4%

CCOC(=O)C(NC(=O)c1ccc(F)cc1)(Nc1nnc(C)s1)C(F)(F)F (stereo not given)
  HPGD block: -4%

Cc1ccc(C(C)C)c(OCC(=O)Nc2ccc(N3CCN(S(C)(=O)=O)CC3)cc2)c1
  HPGD block: -6%

CC(C)CC(=O)Nc1ccc2c3c(cccc13)CC2
  HPGD block: -16%

Cc1ccccc1OCCNC(=O)c1ccccc1Sc1ccccc1C#N
  HPGD block: ?

CCc1cc2c3c(c1)C1(C(=O)N3C(C)(C)CC2C)C(C#N)=C(N)N2C(=C1C#N)Nc1ccccc12 (stereo not given)
  HPGD block: ?

O=C(OCC1COc2ccccc2O1)c1ccccc1F (stereo not given)
  HPGD block: -15%

CCn1c(SCC(=O)Nc2ccc(C)cc2)nnc1-c1ccc(O)cc1
  HPGD block: -11%

Cc1cccc(C)c1NC(=O)c1cc(S(=O)(=O)N2CCOCC2)ccc1F
  HPGD block: -15%

CCN(C(=O)COC(=O)c1[nH]c(C)c(C(C)=O)c1C)C1CCS(=O)(=O)C1 (stereo not given)
  HPGD block: -4%

CC(=O)[C@@]1(O)CC[C@H]2[C@@H]3CCC4=CC(=O)CC[C@]4(C)[C@H]3CC[C@@]21C
  HPGD block: -18%

COC(=O)c1ccc(NC(=O)CCn2c(=O)oc3ccccc32)cc1
  HPGD block: -17%

Cc1c(C#N)c2ncnc(-c3ccccc3)c2n1-c1ccccc1
  HPGD block: -13%

COc1ccc(OCCN2CCN(C3CC(=O)N(CCC(C)C)C3=O)CC2)cc1 (stereo not given)
  HPGD block: -7%

COc1cc2cc(CN(CCN3CCCC3)C(=O)Nc3ccc(F)cc3)c(=O)[nH]c2cc1OC
  HPGD block: ?

Oc1ccc(-c2onc3ccc(Cl)cc23)cc1
  HPGD block: -22%

CC(=O)c1c(C)[nH]c(C(=O)OCC(=O)Nc2ncc(Cl)c(C)c2Cl)c1C
  HPGD block: -7%

Cc1ccc(Cn2nnc3c(=O)n(CC(=O)N4CCN(c5ccccc5)CC4)cnc32)cc1
  HPGD block: -14%

CN1CCN(c2cc(-c3ccc(N(C)C)cc3)ncn2)CC1
  HPGD block: ?

CN1C2CCC1CC(OC(=O)C(CO)c1ccccc1)C2 (stereo not given)
  HPGD block: -14%&-8%&-10%&-2%&-5%

CCN(CC)S(=O)(=O)c1ccc(N2CCOCC2)c(NC(=O)CCC2CCCCC2)c1
  HPGD block: ?

Cc1cc(C)n(CCCO)c(=O)c1C#N
  HPGD block: -13%

COc1cc(C2C(C#N)=C(N)OC3=C2C(=O)CCC3)cc(OC)c1OC(=O)N1CCOCC1 (stereo not given)
  HPGD block: -14%

c1ccc(-c2nnc3sc(-c4cc5ccccc5o4)nn23)cc1
  HPGD block: -17%

O=C(NCc1ccccn1)C1CCN(S(=O)(=O)c2cnc[nH]2)CC1
  HPGD block: 2%

COC(=O)C1=C(N)Oc2cc(C)n(CCCn3ccnc3)c(=O)c2C1c1cccc(Cl)c1 (stereo not given)
  HPGD block: 17%

O=C(Nc1ccc2c(c1)OCCO2)C1CCCN1S(=O)(=O)c1ccc(Cl)cc1 (stereo not given)
  HPGD block: -9%

COc1cccc2cc(S(=O)(=O)c3ccccc3)c(=Nc3ccc4c(c3)OCCO4)oc12
  HPGD block: -18%

Cc1ccc(CSCC(=O)NCc2cccnc2)cc1
  HPGD block: -3%

NC(=O)CSc1nnc(-c2ccncc2)n1CCc1ccccc1
  HPGD block: -5%

COC(=O)c1cc(=O)n(-c2ccccc2)c(=Nc2ccccc2)s1
  HPGD block: -5%

CCOc1ccc2c(c1)-c1c(ssc1=S)C(C)(C)N2C(=O)CSC1=NCCS1
  HPGD block: -4%

CCCc1nc(NC(C)=O)c(C#N)c(-c2ccco2)c1CC
  HPGD block: -29%

N#Cc1c(-c2ccccc2)nc(N2CCOCC2)[nH]c1=O
  HPGD block: -9%

O=C(NCCC1=CCCCC1)c1ccc(Cl)c(S(=O)(=O)N2CCOCC2)c1
  HPGD block: 1%

CC1C=Cc2ccccc2N1C(=O)c1ccccc1 (stereo not given)
  HPGD block: 0%

O=C(Nc1cccc(S(=O)(=O)N2CCOCC2)c1)c1ccco1
  HPGD block: 0%

O=C(c1cccs1)n1cc(C(=S)N2CCOCC2)c2ccccc21
  HPGD block: -11%

CC1(C)C(C=C(Cl)Cl)C1C(=O)N(Cc1ccc(Cl)cc1)C1CCS(=O)(=O)C1 (stereo not given)
  HPGD block: -8%

COc1cc(/C=C(\C#N)c2[nH]nc(N)c2C#N)cc(OC)c1O
  HPGD block: 16µM*

CC(Cc1ccccc1)C(=O)N(C)Cc1ccccc1 (stereo not given)
  HPGD block: 5µM*!

CCC(=O)c1c[nH]c(C(=O)NCC2CCCO2)c1 (stereo not given)
  HPGD block: -15%

Cc1cccc(NC(=O)c2ccoc2C)n1
  HPGD block: -8%

CCCC(=O)Nc1ccc(C(=O)NCC2CCCO2)cc1 (stereo not given)
  HPGD block: 11µM*

Cc1ccc2nc(SCc3nc4c(cnn4-c4ccccc4)c(=O)[nH]3)[nH]c2c1
  HPGD block: 4%

CCC(C)O (stereo not given)
  HPGD block: -7%

N#Cc1c(NC(=O)COC(=O)c2ccc(F)cc2)sc2c1CCC2
  HPGD block: -8%

Nc1nonc1NC(=O)NN=C1CCCCC1
  HPGD block: -7%

CN(C)c1ccc(C=Nc2ccccc2C(N)=O)cc1
  HPGD block: ?

O=C(OCC(=O)c1cccs1)C1=COCCO1
  HPGD block: -17%

Cc1ccc(C)c(-c2cc(C(=O)Nc3nccs3)c3ccccc3n2)c1
  HPGD block: -21%

Three compounds from above, sorted by formula weight, ascending:
CC1C=Cc2ccccc2N1C(=O)c1ccccc1 (stereo not given)
  HPGD block: 0%

CN1C2CCC1CC(OC(=O)C(CO)c1ccccc1)C2 (stereo not given)
  HPGD block: -14%&-8%&-10%&-2%&-5%

Cc1ccc(Cn2nnc3c(=O)n(CC(=O)N4CCN(c5ccccc5)CC4)cnc32)cc1
  HPGD block: -14%

(further entries)
CCCNC(=O)OC[C@H]1O[C@H](CCO/N=C/c2ccc(C(=O)N3[C@H](c4ccc(C)cc4)[C@@H](C)CC[C@H]3C(=O)OC)cc2)C=C[C@@H]1Oc1ccc(OC)cc1
  HPGD block: -10%

N#CCN1CCN(CCC(=O)Nc2ccc(OCc3ccccc3)cc2)CC1
  HPGD block: -4%

COc1ccc(/C(N)=N/OC(=O)Cc2ccccc2OC)cc1
  HPGD block: -9%

CCc1ccc(/C(C)=N/Nc2cc(Cl)nc(C)n2)cc1
  HPGD block: -14%

CNc1ccc(Br)cc(C(=O)/C=C/c2cccc(OC)c2OC)c1=O
  HPGD block: 14µM*

Cc1ccc(S(=O)(=O)N/N=C/c2ccc(OS(=O)(=O)c3ccc(C)c([N+](=O)[O-])c3)cc2)cc1
  HPGD block: -27%

COC(=O)c1[nH]c2cccc(OC)c2c1NC(=O)CCN1CCN(c2cccc(Cl)c2)CC1
  HPGD block: ?

COc1ccc(CNC(=O)C23CN(Cc4ccccc4)CC2C(c2ccc([N+](=O)[O-])cc2)=NO3)cc1 (stereo not given)
  HPGD block: -8%

Cc1cccc(-c2nnc(SCC#N)n2-c2cccc(Cl)c2)c1
  HPGD block: -10%

CCCN(C(=O)Cc1nc(N)n[nH]1)C1(C(=O)Nc2ccccc2C)CCCCC1
  HPGD block: -3%

CCOC(=O)N1CCN(C(=O)CSc2nc3c(cnn3-c3ccccc3)c(=O)[nH]2)CC1
  HPGD block: -27%

CC(C)Oc1ccc(NC(=O)Oc2ccccc2)cc1
  HPGD block: -12%

COc1ccc(C2CCCN2C(=O)Nc2ccc(Cl)cc2)cc1OC (stereo not given)
  HPGD block: -25%

COc1ccc(NC(=S)Nc2ccc(Oc3ccccc3)cc2)cc1
  HPGD block: -7%

CN(C)c1ccc(NC(=O)c2cccc(C(=O)Nc3ccc(N(C)C)cc3)n2)cc1
  HPGD block: -17%

Cn1c(O)c(N=NC(=O)c2cccc(S(=O)(=O)N3CCCCC3)c2)c2ccccc21
  HPGD block: ?

O=C(Cc1cccc(C(F)(F)F)c1)NCc1cccc(Cl)c1
  HPGD block: -27%

Cc1occc1C(=O)N/N=C/C1=C(N2CCOCC2)C(=C\c2ccc(Cl)cc2)/CC1
  HPGD block: -5%

Cc1ccc(C23CC4CC(CC(NC(=O)N5CCN(C)CC5)(C4)C2)C3)cc1
  HPGD block: -3%

Cc1cccc(C2C3=C(Nc4[nH]n(-c5ccccc5)c(=O)c42)c2ccccc2C3=O)c1 (stereo not given)
  HPGD block: -3%

CC(C)(C)OC(=O)N[C@@H](Cc1ccccc1)c1nnc(S(=O)(=O)Cc2cccc(F)c2)o1
  HPGD block: 4µM*

CC(C)CNc1nc(Oc2ccc(=O)n(-c3ccccc3)n2)nc(N2CCOCC2)n1
  HPGD block: 1%

COc1ccc(OCc2nnc(SCC(=O)NCc3ccco3)o2)cc1
  HPGD block: -11%

Cc1ccc(-c2nc(CS(=O)CC(=O)NCCC(C)C)c(C)o2)cc1 (stereo not given)
  HPGD block: -13%

Cn1cc(-c2nnnn2-c2ccc(Cl)cc2)c(=O)c2ccccc21
  HPGD block: -12%

COc1ccc(N2C(=O)C3ON(C4SC(=S)N(C)C4(C)C)C(c4ccc(Cl)cc4)C3C2=O)cc1 (stereo not given)
  HPGD block: -16%

N=c1c(-c2nc3ccccc3[nH]2)cc(C(=O)c2cccs2)nn1-c1ccccc1
  HPGD block: -13%

O=C(O)CCC(=O)N1N=C(c2ccco2)CC1c1cccs1 (stereo not given)
  HPGD block: -8%

COc1cc(/C=C/C(=O)Nc2ccc(C(C)=O)cc2)cc(OC)c1OC
  HPGD block: ?

CCOC(=O)c1c(-c2ccccc2)csc1NC(=S)N(CC)CC
  HPGD block: -1%

COc1ccc(N2CCC(CNC(=O)Nc3ccc(OC)cc3OC)C2)cc1 (stereo not given)
  HPGD block: -9%

COc1cccc(Nc2nc(=O)[nH]nc2C)c1
  HPGD block: -2%

COc1ccc(-c2nnc(SCc3ccccc3F)o2)cc1OC
  HPGD block: -18%

COC(=O)c1[nH]c2cccc(OC)c2c1NC(=O)CCN1CCN(c2ccccc2F)CC1
  HPGD block: ?

OC(CNC1CCCc2ccccc21)COc1ccc2ccccc2c1 (stereo not given)
  HPGD block: -8%

COc1cc(/C=N/NC(=O)c2ccc(O)cc2)ccc1Oc1ccc([N+](=O)[O-])cn1
  HPGD block: 22µM*

CC(C)NS(=O)(=O)c1ccc(OCC(=O)NCC2CCCO2)c(Cl)c1 (stereo not given)
  HPGD block: -13%

C/C(=N/NC(=O)c1ccc(Br)o1)c1ccc(C)o1
  HPGD block: -27%

CC(=O)Oc1ccccc1C(=O)Oc1ccccc1C(=O)O
  HPGD block: -27%&-19%

COCCn1c(-c2cc(OC)c(OC)c(OC)c2)nc2oc3ccccc3c(=O)c2c1=O
  HPGD block: -26%

COc1ccc(C)cc1NC(=O)COC(C)=O
  HPGD block: -13%

Three entries already listed, ordered by the value under HPGD block, highest first.
COc1cc(/C=C(\C#N)c2[nH]nc(N)c2C#N)cc(OC)c1O
  HPGD block: 16µM*

CNc1ccc(Br)cc(C(=O)/C=C/c2cccc(OC)c2OC)c1=O
  HPGD block: 14µM*

CC(C)(C)OC(=O)N[C@@H](Cc1ccccc1)c1nnc(S(=O)(=O)Cc2cccc(F)c2)o1
  HPGD block: 4µM*

Compound activity deposited in PubChem by National Center for Advancing Translational Sciences (NCATS).
